NPYLR7 ag: agonists of mosquito NPYLR7 receptor, primary screen, cell-based, Aedes aegypti, calcium fluorescence, mosquito biting behavior; activation, % at 10 µM; AID 1259423, 2018; 270,000 compounds, 0.15% hits; HEK293T NPYLR7/Galpha15, GCaMP6s calcium fluorescence; in the data active = activation above about 40%;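 note: 0% = vehicle and 100% = reference agonist at the receptor; some compounds past the cut are filed as inactive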
NPYLR7 ag max-min: second read-out of NPYLR7 ag, no call of its own (marks repeat the call); activation, %; measured here: Max-Min RFU normalised activation; some inactives read as strong as hits;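 span of the calcium signal over five minutes; 0% = vehicle and 100% = native peptide agonist; compound fluorescence can raise it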
Starred values were filed as active, the others as inactive; & = joins results of further samples. The list is partial. The share of hits here may be higher or lower than overall.

SMILES	NPYLR7 ag	NPYLR7 ag max-min
O=C1NC(=O)/C(=C/C(=O)N2CCN(C(=O)/C=C3\SC(=O)NC3=O)CC2)S1	2.7	0.0
COc1ccc(S(=O)(=O)NC(=O)C2(C)CCN2C(=O)Cc2ccc(-c3ccccc3)cc2)cc1 (stereo unspecified)	-1.0	-2.5
COCCN1CC(O)CN(C(=O)Cc2ccccc2)CC1=O (stereo unspecified)	20.2	23.6
CCC(C)(C)c1nnc(NC(=O)c2ccc(Cl)cc2[N+](=O)[O-])s1	-3.4	-4.4
COc1ccccc1CN(Cc1cc(C(C)(C)C)n[nH]1)C1CC1	8.0	6.5
O=C1CCCN1CCCC(=O)N1CCOC(Cc2ccccc2)C1 (stereo unspecified)	9.6	4.7
Cc1cccc(NC(=O)N2CCN(C(C)c3ccccc3)CC2)c1 (stereo unspecified)	17.1	15.7
CCOc1ccc(S(=O)(=O)N2CCN(c3ccccc3C)CC2)cc1OCC	-10.9	-9.4
CN(CCC=C1c2ccccc2CCc2ccccc21)C(=O)c1ccccc1-n1cccc1	-5.9	-9.8
C=CCNC(=S)NS(=O)(=O)c1ccc(Cl)cc1	-2.7	-4.3
Cc1nc(SCC(=O)Nc2ccc(F)cc2F)c2c(C)c(C)sc2n1	-2.6	-6.9
N#Cc1cccc(S(=O)(=O)Nc2ccc(Cl)cn2)c1	8.2	3.2
Cc1cccnc1CN1CCN(Cc2cnc(S(C)(=O)=O)n2CC(C)C)CC1	10.8	5.3
CN1CCc2c(sc(NC(=O)c3ccc4ncsc4c3)c2-c2nc3ccccc3s2)C1	12.5	9.4
O=C(O)c1ccc(Oc2cc(Cl)ccc2Cl)cc1	0.4	-1.3
CCc1cc2c(=O)n(CC(=O)c3ccc4c(c3)NC(=O)CO4)cnc2s1	7.0	0.8
CCOC(=O)CC(=O)CSc1nnc(-c2ccccc2)c2sc(C)nc12	2.6	-0.3
CC(S)C(=O)NCC(=O)O (stereo unspecified)	-6.3	-0.2
COCCN1CCC(c2nc3c([nH]2)CC(c2ccc(F)cc2)CNC3=O)CC1 (stereo unspecified)	1.8	-0.7
Cc1cnccc1N1CCCN(C(=O)c2cccc3ccnn23)CC1	7.2	5.7
Cc1ccc(CC(C)NC(=O)c2c(C)c(C)nn(C)c2=O)s1 (stereo unspecified)	3.2	14.0
COc1ccc(S(=O)(=O)NNC(=O)Cc2ccc(F)cc2)cc1OC	-0.8	-1.6
Cc1ccc(-c2cc(C(F)(F)F)c3c(=O)[nH]c(=S)[nH]c3n2)cc1	9.3	5.5
COc1cc(/C=C2\C(=N)N3N=CSC3=NC2=O)ccc1OC(=O)c1cccc(C)c1	4.3	2.6
COCCN(Cc1nn(C)cc1Cl)Cc1sccc1C	21.7	10.2

(more compounds)
SMILES	NPYLR7 ag	NPYLR7 ag max-min
CC1CN(c2cc(Cl)nc(SCC(=O)NCc3ccncc3)n2)CCN1C(=O)c1ccc(F)cc1 (stereo unspecified)	8.6	4.1
COc1ccc(CN2CCNC(=O)C2CC(=O)N2CCOCC2)c(OC)c1 (stereo unspecified)	-1.2	-4.5
OCC1(O)CCCN(Cc2cnc(N3CCOCC3)s2)CC1 (stereo unspecified)	0.9	10.8
CC1(C(=O)NS(=O)(=O)c2cccs2)CCN1C(=O)CC1CCCCC1 (stereo unspecified)	3.3	-1.9
Cc1cc(Oc2cnn(C)c(=O)c2Nc2ccc(C(=O)NC3CC3)cc2)ccc1Cl	1.3	11.8
CCN1CCc2c(sc(N)c2-c2nc3ccccc3s2)C1	20.3	23.4
O=C(OCc1nn(-c2ccc(F)cc2)c2c1CCC2)C1COCCO1 (stereo unspecified)	4.2	2.7
COc1cc(C(=O)C=Cc2ccc(C#N)cc2)ccc1O	1.2	-0.2
Cc1ccc(N2C(=O)C3C4C=CC(C5CC45)C3C2=O)cc1C (stereo unspecified)	3.1	0.6
COc1ccccc1N1CCN(c2ccc(NC(=O)c3cc(C(F)(F)F)cc(C(F)(F)F)c3)cc2C(=O)NCCN2CCOCC2)CC1	16.8	22.7
NC(=O)c1cc(N2CCCCC2)ccc1NS(=O)(=O)c1ccc(Cl)cc1	8.6	6.4
Cc1ncc([N+](=O)[O-])n1CCOC(=O)c1ccco1	14.6	13.1
CCn1nccc1NC(=O)C1(C)CCN1C(=O)C1(c2ccc(Cl)cc2)CC1 (stereo unspecified)	-2.9	-8.3
COc1ccc(CCN2CC3=C(C2=O)C(c2cccc(F)c2)NC(=O)N3)cc1 (stereo unspecified)	-5.0	-5.3
COc1ccc(/C=C2\C(=O)NC(=S)N(Cc3ccccc3)C2=O)cc1	-0.1	-0.2
Cc1nnc(SCc2cccc([N+](=O)[O-])c2)[nH]c1=O	0.9	0.9
O=C(NCCOc1ccccc1)c1ccc(-c2cc(-c3cccc(C(F)(F)F)c3)n[nH]2)cc1	-1.1	3.9
Cc1cc(C)c2sc(N(CCN(C)C)C(=O)CCS(=O)(=O)c3ccc(F)cc3)nc2c1	-1.0	-4.7
COc1cc2c(cc1OC)CN(C1CCCN(Cc3ccc4c(c3)CCO4)C1)CC2 (stereo unspecified)	1.9	1.3
Cc1cc(C)c(S(=O)(=O)Nc2ccc(S(=O)(=O)Nc3ccccc3)cc2)c(C)c1	16.4	11.6
O=C(CN(c1cccc([N+](=O)[O-])c1)S(=O)(=O)c1ccccc1)Nc1ccc(Cl)cc1	-1.3	-5.1
O=C(Nc1ccnn1C1CCN(Cc2cccc(OCCO)c2)CC1)C1CC1	0.7	-0.2
COc1ccc(CN(CCc2c[nH]c3ccccc23)C(=O)CN(C(=O)c2ccc(Cl)c(Cl)c2)C2CC2)cc1OC	6.3	5.2
Cn1cc[nH]c1=S	1.4&-5.0&1.8	-5.9&-10.5&-3.6
CC(C)c1n[nH]c(C2CN(C(=O)c3ccncc3F)CCO2)n1 (stereo unspecified)	8.5	2.8

Next part.
SMILES	NPYLR7 ag	NPYLR7 ag max-min
COc1ccc(CCN2CCCC(CN(C)C(=O)c3cnsn3)C2)cc1 (stereo unspecified)	-0.1	-1.3
COc1cccc(OCC(O)Cn2ccnc2-c2nc[nH]c2C)c1 (stereo unspecified)	2.6	-15.5
COc1ccccc1-n1ncc2c(C)nnc(SCc3ccccn3)c21	-10.9	-17.9
CCCCC(=O)Nc1oc2c(C)cccc2c(=O)c1-c1ccc(OC)c(OC)c1	-3.6	-2.4
Cc1ccc(NS(=O)(=O)c2ccc(F)c(F)c2)cc1S(=O)(=O)N1CCCCC1	-1.1	-2.6
CCCNC(=O)c1cc(NC(=O)Nc2ccc(Br)cc2)ccc1N1CCCCC1	22.9	28.3
Cc1ccc(S(=O)(=O)n2nc(C)c(S(=O)(=O)N3CCCCCC3)c2C)cc1C	3.9	-0.7
O=C(Nc1ccc(Cl)c(C(F)(F)F)c1)N1CCc2c([nH]c3ccccc23)C1c1cc(Cl)cc2c1OCO2 (stereo unspecified)	-4.2	-8.8
CC(=O)c1c(C)[nH]c(C(=O)Cn2cc(C(F)(F)F)cc(Cl)c2=O)c1C	-2.0	-3.8
O=C(COc1coc(CN2CCc3ccccc3C2)cc1=O)N1CCCc2ccccc21	0.5	-2.3
COc1cc(C=C(C#N)c2nnc3n2CCCCC3)cc(OC)c1OC	-4.6	-7.1
CCCCc1nc(N2CCN(S(=O)(=O)c3cccc(C(F)(F)F)c3)CC2)c2c3c(sc2n1)CC(C)CC3 (stereo unspecified)	12.5	18.9
COc1ccc(NS(=O)(=O)CCC(C)(C)C)cc1OC(F)F	11.3	9.6
Cc1cc(NC(=O)Cn2nc(C)c(C#N)c2N)ccc1Br	8.9	7.2
Fc1ccc2nc3c(nc2c1)c1cc(F)ccc1n3Cc1cc(Cl)cc2c1OCOC2	-7.1	-9.8
O=C1c2ccccc2C(=O)N1CC1CNCCO1 (stereo unspecified)	4.2	1.6
O=C(NCC1CCCN(C(=O)c2cccc(N3CCNC3=O)c2)C1)c1cc2ccccc2[nH]1 (stereo unspecified)	18.3	10.3
CC1=C(C(=O)N(C)Cc2cc(C3CC3)on2)C(C)NC(=O)N1 (stereo unspecified)	2.2	5.6
Cc1cc(C)c(S(=O)(=O)N(CC(=O)N(CCc2c[nH]c3ccccc23)Cc2ccc(Cl)c(Cl)c2)C2CC2)c(C)c1	21.9	22.3
O=C(Cn1ccn2nc(-c3ccccc3)cc2c1=O)NCCc1ccccc1	5.0	2.6
CC(C)(C)c1cc(NC(=O)c2cccc(Cl)c2Cl)n(-c2cc(Cl)ccc2Cl)n1	20.6	16.7
COc1ccc(C2c3[nH]c4ccccc4c3CCN2Cc2cccn2-c2ncccn2)cc1C (stereo unspecified)	13.1	4.3
COc1ccc(C2c3ccsc3CCN2CC(=O)N2CCN(C(=O)c3ccccc3Cl)C(C)C2)cc1 (stereo unspecified)	7.8	-0.7
CC1CCCN(S(=O)(=O)c2ccc3c(c2)nc(SCc2cc(Cl)cc4c2OCOC4)n3CC2CCCO2)C1 (stereo unspecified)	2.0	0.7
Cn1ccnc1CN1CCN([C@H]2C[C@H]3C[C@@H](c4ccccc4)OC[C@@]3(C)C2)CC1	1.0	7.2

The list continues:
SMILES	NPYLR7 ag	NPYLR7 ag max-min
Cc1ccc(C)c(Cc2c(C)nc(C)nc2N2CCN(C(=O)c3ccc(Cl)cc3)CC2)c1	5.0	12.7
CCOC(=O)CNC(=O)N1CCC2(CC1)NC(=O)c1cc(Br)ccc1N2	6.6	19.4
Cc1cc(CNC(=O)N(C)Cc2ccc(N(C)C)cc2)on1	10.3	5.4
CC(=O)c1ccccc1NC(=O)CN(C)Cc1cnn(C)c1	8.5	7.3
COC(=O)Cn1c(=NC(=O)CN2C(=O)CCC2=O)sc2cc(C)ccc21	4.5	1.0
O=C(NC1(c2ccc(F)cc2)CCCC1)c1cccs1	3.2	0.3
Cn1c(=NNS(=O)(=O)c2ccc(Cl)s2)sc2ccccc21	3.4	2.4
O=C(Cc1ccccc1)N1CCC(Cc2ccc(F)cc2)CC1	-0.1	-4.6
CC(=O)NCCN(Cc1ccccc1)C(=O)c1cc2ccccc2n1C	1.6	0.3
CC1(C(=O)Nc2ccc(F)cc2F)CCN1C(=O)Cc1ccsc1 (stereo unspecified)	-3.5	-7.4
Cc1cc(C)nc(NN=Cc2c(N3CCCC3)nc3c(C)cccn3c2=O)n1	0.5	15.3

Among those listed so far, these have a thiophene ring, fused or not:
SMILES	NPYLR7 ag	NPYLR7 ag max-min
Cc1nc(SCC(=O)Nc2ccc(F)cc2F)c2c(C)c(C)sc2n1	-2.6	-6.9
CN1CCc2c(sc(NC(=O)c3ccc4ncsc4c3)c2-c2nc3ccccc3s2)C1	12.5	9.4
CCc1cc2c(=O)n(CC(=O)c3ccc4c(c3)NC(=O)CO4)cnc2s1	7.0	0.8
Cc1ccc(CC(C)NC(=O)c2c(C)c(C)nn(C)c2=O)s1 (stereo unspecified)	3.2	14.0
COCCN(Cc1nn(C)cc1Cl)Cc1sccc1C	21.7	10.2
CC1(C(=O)NS(=O)(=O)c2cccs2)CCN1C(=O)CC1CCCCC1 (stereo unspecified)	3.3	-1.9
CCN1CCc2c(sc(N)c2-c2nc3ccccc3s2)C1	20.3	23.4
CCCCc1nc(N2CCN(S(=O)(=O)c3cccc(C(F)(F)F)c3)CC2)c2c3c(sc2n1)CC(C)CC3 (stereo unspecified)	12.5	18.9
COc1ccc(C2c3ccsc3CCN2CC(=O)N2CCN(C(=O)c3ccccc3Cl)C(C)C2)cc1 (stereo unspecified)	7.8	-0.7
O=C(NC1(c2ccc(F)cc2)CCCC1)c1cccs1	3.2	0.3
Cn1c(=NNS(=O)(=O)c2ccc(Cl)s2)sc2ccccc21	3.4	2.4
CC1(C(=O)Nc2ccc(F)cc2F)CCN1C(=O)Cc1ccsc1 (stereo unspecified)	-3.5	-7.4

Record cards (already shown).
Listed for O=C(NC1(c2ccc(F)cc2)CCCC1)c1cccs1 : NPYLR7 ag: 3.2; NPYLR7 ag max-min: 0.3
Listed for CCOC(=O)CNC(=O)N1CCC2(CC1)NC(=O)c1cc(Br)ccc1N2 : NPYLR7 ag: 6.6; NPYLR7 ag max-min: 19.4
